RN4220 kill = growth inhibition of S. aureus RN4220, primary screen, OD600; actives 0.33% (n = 330,000); inhibition, % (no concentration beside the values); 16 h; AID 1259311, 2017;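 active = z-score of -3 or lower and OD600 up to 0.18 on both plates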;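 also: plate controls were untreated cells for no effect and reference antibiotic for full effect; stock transfer was 100 nL into about 80 µL; one replicate is shown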
BJeLR lethal = MLPCN primary cell-based screen for lethality selective to Ras in HRASV12 cells; BJeLR (HRASV12) viability, CellTiter-Glo ATP luminescence, 48 h; reference of the scale not given here; inhibition, % (no concentration beside the values); actives 0.17% (n = 300,000); AID 1554, 2009;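 active = replicate mean above 50%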;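 also: 50 nL library stock added to about 25 µL; numbers are from one replicate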
Sa ugtP lethal = growth inhibition of ugtP-null S. aureus, primary screen, RN4220 ugtP deletion, OD600. 16 h; some inactives read as strong as hits. growth inhibition, % (concentration not given with the values). actives 0.54% (n = 330,000);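 active = z-score under -3 and OD600 up to 0.15 on both plates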;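 also: plate controls were untreated wells for no effect and antibiotic for full effect; wells of about 80 µL received 100 nL stock; the first replicate is given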
Autofluor counter = compound fluorescence in toxin protease inhibitor counterscreen; compound autofluorescence counterscreen, microsphere flow cytometry; stronger effect = higher value; fluorescence intensity (no concentration beside the values); actives 3.1% (n = 360,000); AID 624483;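 active = at least 3 SD above the mean of all compounds, about 16000 in these data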;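 also: 100 nL of 1 mM stock went into each well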
PrP UTR inh = inhibition of PrP 5' UTR reporter expression; cell-based PrP 5' UTR mRNA reporter, plate reader; actives 0.35% (n = 340,000); inhibition, % (test concentration not listed);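 active = every replicate at 50% or more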;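 also: 0 = median of the neutral control wells; tested in H4 reporter cells; numbers are from one replicate; inactives centre near -14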
Mtb hypoxia inh = PubChem AID 1159583. M. tuberculosis hypoxia-regulated fluorescent reporter, fluorescence. fluorescence inhibition, % (test concentration not listed). actives 0.1% (n = 300,000);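 active = 35 to 45% if threefold the growth effect, above 45% if 1.5-fold the growth effect; inactive = the rest, general growth blockers included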;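 also: wells of about 50 µL received 100 nL stock; 0% = vehicle wells and 100% = reference inhibitor wells; whole bacteria with a GFP reporter of the hypoxia response; strong numbers were not always called active; many hits fall short of the cut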
Mtb hypoxia inh growth = further read-out of Mtb hypoxia inh, marked with its call; growth inhibition, %; measured here: M. tuberculosis growth (absorbance);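 0% = vehicle and 100% = reference antibiotic; read after six days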
Numbers without * were called inactive; nt = no result given; & = joins results of further samples.

SMILES | RN4220 kill | BJeLR lethal | Sa ugtP lethal | Autofluor counter | PrP UTR inh | Mtb hypoxia inh | Mtb hypoxia inh growth
O=C(c1cccc(Br)c1)c1coc2ccc(O)cc12 | 3.7 | nt | -7.9 | 5955 | -80.5 | 1.8 | -4.5
O=c1c(C=NCc2cccs2)c(O)n(C2CCCCC2)c(=O)n1C1CCCCC1 | -10.5 | 5.0 | 27.2 | 4752 | -2.2 | nt | nt
O=C(CSc1cccc2cccnc12)Nc1ccc(S(=O)(=O)N2CCOCC2)cc1 | 2.6 | 10.5 | 9.2 | 4634 | -18.5 | 18.1 | 5.4
CCN(CC)S(=O)(=O)c1ccc(S(=O)(=O)N2CCCC(C(=O)NC3CC3)C2)cc1 (stereo not given) | 0.3 | 11.0 | 9.1 | 3835 | -18.7 | 11.0 | 9.6
CCON=Cc1ccc(OC)c(Oc2nc(OC)cc(OC)n2)c1 | -2.4 | nt | 0.5 | nt | nt | -10.7 | -9.8
CCc1nnc(NC(=O)CSc2nnc(-c3c[nH]c4ccccc34)n2CC)s1 | 3.7 | 15.6 | -7.3 | 10102 | -20.9 | -3.3 | -0.2
Cc1nc(-c2coc3cc(C)c(N=O)c(O)c3/c2=N\N)cs1 | nt | 12.0 | nt | 4548 | 9.1 | nt | nt
CCOC(=O)C1=C(C)NC(C)=C(C(=O)OCC)C1c1ccc(O)cc1 | -1.6 | 1.7 | -7.1 | 2441 | -3.6 | nt | nt
O=C(Nc1c2c(nn1-c1ccccc1)CS(=O)(=O)C2)c1ccccc1Br | 5.9 | 0.3 | 3.7 | 5685 | -34.9 | 7.8 | 6.4
COc1ccc(N(CC(=O)Nc2ccc(C(C)C)cc2)S(=O)(=O)c2c(C)noc2C)cc1 | 3.6 | -2.3 | 10.5 | 5769 | -13.6 | -11.8 | -2.2
C/C(=N\NC(=O)CSc1nc(C)cc(C)n1)c1ccc2c(c1)OCCO2 | nt | 3.5 | nt | 2059 | -33.4 | nt | nt
COc1ccc(C(=O)CSc2n[nH]c(C)n2)cc1[N+](=O)[O-] | -0.1 | 2.7 | -2.7 | 4065 | -37.8 | -0.5 | 6.0
C=CP(=O)(O)c1ccccc1 | 3.0 | -3.9 | 0.9 | 3644 | -19.0 | nt | nt
CC(C)[C@H](NC(=O)N1c2ccccc2NC(=O)[C@@H]1C(C)C)C(=O)N[C@@H](Cc1c[nH]c2ccccc12)C(=O)O | 1.3 | 0.1 | 0.6 | 5778 | -29.1 | nt | nt
Cn1nc(C(F)(F)F)c(C#N)c1N1CCN(c2ccccc2)CC1 | nt | 0.0 | nt | 3345 | 1.8 | nt | nt
COc1cc(C(=S)N2CCC(C(N)=O)CC2)ccc1O | 3.0 | nt | 4.3 | 3705 | 6.0 | 16.6 | 8.9
COc1ccc(-c2cc3ccccc3s2)cc1[C@H]1[C@H]2C=CC[C@@H](C)[C@@H]2C(=O)N1Cc1ccccc1 | nt | -5.5 | nt | 4117 | -36.8 | nt | nt
CCN1CCN(c2ncnc3ccc(Br)cc23)CC1 | 0.6 | 6.8 | 4.9 | 4604 | 9.0 | 5.5 | 8.0
Cc1c(C(=O)OCC(=O)NC(C)c2ccccc2)oc2ccccc12 (stereo not given) | 8.5 | 8.9 | -0.5 | 5481 | -19.5 | -5.4 | -1.0
C[n+]1ccccc1/C=N/O | nt | -23.6&3.2 | nt | 4453&6130 | -11.9&-28.3 | nt | nt
COc1ccc(C(=O)NCC(=O)N2CCNC(=O)C2)cc1OC | 1.6 | -10.8 | -2.3 | 4406 | -32.3 | -0.6 | -2.3
Cc1nc2ccccc2c(=O)n1/N=C/c1ccncc1 | nt | 4.1 | nt | 6158 | -8.0 | nt | nt
Cc1ccc(C(=O)Nc2ccccc2N2CCN(C(=O)C(C)C)CC2)cc1 | 2.6 | -0.2 | -4.5 | 9045 | -25.9 | -2.3 | 8.1
FC(F)(F)c1ccc(NC(=S)NCc2ccccc2)cc1 | 44.1 | 7.4 | 50.2 | 3364 | -15.7 | -12.1 | 8.5
FC(F)(F)c1cccc(N2Cc3ccccc3C2)c1 | 0.6 | -0.2 | -5.9 | 3008 | -19.0 | -1.3 | 7.7
CC1CCCC(NC(=O)COC(=O)/C=C/c2ccc(S(=O)(=O)N3CCOCC3)cc2)C1C (stereo not given) | 1.5 | 9.2 | 4.3 | 5405 | -5.5 | 17.5 | 12.1
CCNC(=O)/C(C#N)=C/c1c(N(Cc2ccccc2)Cc2ccccc2)nc2ccccn2c1=O | 1.5 | -1.4 | 0.7 | 2015 | -0.8 | 9.4 | 2.9
COC(=O)c1cccnc1NC(=S)NC1CCCCC1 | 3.1 | 6.2 | 0.5 | 4417 | -16.8 | 3.9 | 1.5
Cc1cc(-c2csc(N)n2)c(C)n1-c1ccc(Cl)c(Cl)c1 | 6.5 | -18.6 | 9.4 | 2494 | -5.4 | 5.6 | 10.2
CC(=NNC(=O)c1ccc(Cn2cc(Br)cn2)o1)c1ccc(NC(=O)c2ccoc2C)cc1 | -13.7 | nt | 2.2 | nt | nt | -1.1 | 3.4
CCc1noc(C)c1C(=O)Nc1ccc(S(=O)(=O)N2CCCCC2)cc1 | 3.8 | 3.5 | 1.9 | 6600 | -19.2 | 5.5 | 5.9
Cc1ccc(-c2nn(-c3ccccc3)cc2C=NNS(=O)(=O)c2ccccc2)cc1 | -5.1 | nt | -32.5 | nt | nt | -4.8 | 7.0
CN(C1(C)CCS(=O)(=O)C1)S(=O)(=O)c1ccc2ccccc2c1 (stereo not given) | -0.6 | -5.7 | -4.1 | 4525 | -6.7 | -3.0 | -0.5
COc1ccc2nc(SCc3ccccc3C)nc(C)c2c1 | 14.3 | -4.0 | 5.0 | 2634 | -52.2 | 8.7 | 6.2
COc1ccc(OCc2cc(/C=N\NC(=O)c3ccccc3)ccc2OC)cc1 | nt | 21.2 | nt | 6231 | -35.1 | nt | nt
CC(C)CC(c1nnnn1C(C)(C)C)N1CCN(Cc2ccccc2)CC1 (stereo not given) | 3.7 | -4.9 | 15.2 | 4422 | -51.2 | 7.6 | -6.4
COc1ccccc1C(=O)N/C(=C/c1ccc(Br)cc1)C(=O)NCCCn1ccnc1 | 4.7 | -5.9 | 3.9 | 4661 | -7.0 | 8.9 | 2.0
COc1ccc(C2SCC(=O)N2c2nc3ccccc3s2)cc1 (stereo not given) | 3.0 | 1.4 | 29.0 | 2291 | -16.4 | 17.0 | 17.5
O=C1Cc2ccccc2Sc2ccc(O)cc21 | 8.8 | 3.9 | -3.3 | 2377 | -31.6 | 5.5 | 2.0
CC(C)C(NC(=O)c1ccccc1Cl)C(=O)OCc1nc2scc(-c3ccccc3Cl)c2c(=O)[nH]1 (stereo not given) | 2.3 | 4.4 | -10.3 | 1965 | -0.6 | 4.1 | 1.7
CC(C)C(=O)Nc1ncc(Cc2cccc(Cl)c2)s1 | -14.2 | 19.0 | -4.4 | 3817 | -64.2 | 9.3 | -0.8
CCOc1ccc(-n2nnc3c(=O)n(CC(=O)c4ccccc4)cnc32)cc1 | 18.3 | -1.8 | 13.8 | 5360 | -12.1 | -6.2 | 5.2
O=C(NCC1CCCO1)c1cccc(NC(=O)c2ccccc2)c1 (stereo not given) | 0.5 | 0.3 | -7.4 | 4446 | -7.0 | 4.7 | 2.9
C=C(C(=O)c1ccccc1)C(C)CC(=O)c1ccccc1 (stereo not given) | 2.0 | -9.3 | 21.3 | 2319 | -9.6 | 8.2 | 14.8
CCN1CCN(c2ccccc2NC(=O)c2ccc(-n3cccn3)cc2)CC1 | -5.8 | nt | -7.5 | 3740 | -18.8 | -0.9 | -2.1
O=C(CSCc1ccc(Cl)cc1)Nc1cccc(C(=O)Nc2ccccc2C(=O)O)c1 | 8.0 | 1.8 | 6.5 | 2329 | -6.9 | nt | nt
O=C(c1cc(COc2ccc(F)cc2Cl)on1)N1CCN(c2cnccn2)CC1 | 8.8 | -6.1 | -0.2 | 5164 | -6.6 | 5.6 | 5.8
Cc1cc(C)c(C(=O)c2ccccc2)c(C)c1 | 4.3 | nt | 10.0 | 3291 | -10.0 | 3.2 | 3.8
CC=CC(=O)N1CC2(CC(c3cccc(NC(=O)COc4ccc(Cl)cc4)c3)=NO2)CC1C(N)=O (stereo not given) | 3.6 | nt | 6.1 | nt | nt | 20.6 | 9.1
NP(=O)(OCC(F)(F)F)Oc1ccc(Cl)cc1 (stereo not given) | 1.8 | 2.1 | 11.8 | 7919 | -23.7 | 6.6 | 0.1

Gathered by group: those above with fluorine.
SMILES | RN4220 kill | BJeLR lethal | Sa ugtP lethal | Autofluor counter | PrP UTR inh | Mtb hypoxia inh | Mtb hypoxia inh growth
Cn1nc(C(F)(F)F)c(C#N)c1N1CCN(c2ccccc2)CC1 | nt | 0.0 | nt | 3345 | 1.8 | nt | nt
FC(F)(F)c1ccc(NC(=S)NCc2ccccc2)cc1 | 44.1 | 7.4 | 50.2 | 3364 | -15.7 | -12.1 | 8.5
FC(F)(F)c1cccc(N2Cc3ccccc3C2)c1 | 0.6 | -0.2 | -5.9 | 3008 | -19.0 | -1.3 | 7.7
O=C(c1cc(COc2ccc(F)cc2Cl)on1)N1CCN(c2cnccn2)CC1 | 8.8 | -6.1 | -0.2 | 5164 | -6.6 | 5.6 | 5.8
NP(=O)(OCC(F)(F)F)Oc1ccc(Cl)cc1 (stereo not given) | 1.8 | 2.1 | 11.8 | 7919 | -23.7 | 6.6 | 0.1

(listing goes on)
SMILES | RN4220 kill | BJeLR lethal | Sa ugtP lethal | Autofluor counter | PrP UTR inh | Mtb hypoxia inh | Mtb hypoxia inh growth
CC1=[N+]([O-])C(N2CCOCC2)C(O)(c2ccccc2)C1 (stereo not given) | -11.5 | 0.1 | -4.0 | 2880 | -28.2 | 10.9 | 7.5
COC(=O)c1c(C)[nH]c(C(=O)OC(C)C(=O)N2CCOCC2)c1C (stereo not given) | 6.2 | -5.7 | -2.8 | 7230 | -29.3 | -4.7 | -4.9
O=C(COC(=O)C12CC3CC(CC(O)(C3)C1)C2)Nc1ccc(Cl)c(S(=O)(=O)N2CCOCC2)c1 | -0.3 | nt | -0.9 | 5698 | -20.9 | 3.7 | 7.2
CCN1C(=O)[C@H]2[C@@H](c3ccc(C)cc3)N3C(=O)N(c4ccc(OC)cc4)C(=O)[C@@]3(C)[C@H]2C1=O | nt | 6.3 | nt | 3978 | -17.9 | nt | nt
O=C(NN=Cc1ccc(O)cc1)c1ccccc1NS(=O)(=O)c1cccs1 | 3.1 | nt | -2.8 | 4098 | -20.1 | nt | nt
COc1cc2c(cc1OC)C(CSc1ccccc1C(=O)O)=NC(C)(C)C2 | 4.2 | 2.9 | -3.3 | 4738 | -17.2 | -0.3 | 1.7
CC(C)(C)OCC(O)CN1CCN(C(=O)c2ccccc2)CC1 (stereo not given) | -1.1 | -22.4 | -7.2 | 3563 | -8.8 | -8.6 | -1.1
Cc1ccc(CNC(=O)CCOc2ccc(C(C)(C)C)cc2)cc1 | 10.2 | -2.4 | 17.0 | 4367 | -6.4 | 8.9 | 3.9
COC(=O)C1Cc2ccccc2CN1C(=O)CCl (stereo not given) | -0.9 | -10.1 | 0.0 | 3117 | -3.3 | 24.6 | 16.3
COC(=O)CCC(=O)N1CCOCCOCCOCC1 | -0.4 | -1.8 | -7.5 | 2195 | -14.1 | -4.7 | 2.0
CCOCCCn1cnc2c3cc(F)ccc3n(C)c2c1=O | 3.6 | -0.8 | 9.8 | 5604 | -14.7 | 12.3 | 7.8
COc1cc2c(cc1OC)CN(C(=O)CSc1nc(N)c(C#N)cc1C#N)CC2 | -0.7 | -7.2 | 3.9 | 15049 | -4.7 | 4.2 | 6.4
O=C(O)CN1C(=O)CSc2ccccc21 | 0.1 | -10.4 | 5.2 | 9223 | -12.6 | 5.6 | -1.0
Cc1cc2ccccc2c(=O)n1CC(=O)NCCC1=CCCCC1 | 8.7 | nt | 6.3 | 4258 | -10.7 | 6.7 | 11.3
Cc1cccc(NC(=O)CCS(=O)(=O)c2cccc3nonc23)c1C | 2.4 | 4.0 | 7.8 | 3317 | 13.2 | 8.4 | 11.4
CCOc1nc(-c2ccc(C)cc2)ccc1-c1noc(COC)n1 | 3.2 | -1.2 | 4.6 | 3995 | -13.4 | -0.4 | 4.1
Cc1ccc(NS(=O)(=O)c2c(C)[nH]c(=O)[nH]c2=O)cc1C | 1.3 | 7.0 | 3.0 | 10883 | -36.0 | 1.3 | 7.0
Cc1ccc(C(=O)N/N=C\c2ccccc2[N+](=O)[O-])cn1 | nt | -17.1 | nt | 2388 | -60.5 | nt | nt
